VDR inh – inhibitors of human vitamin D receptor. P11473. VDR-SRC2-3 peptide fluorescence polarization, 2 h. Potency, µM, for the others: max response, negative = inhibition, most hits filed as inhibitors. 0.93% of 400,000 active. AID 504847; active = well fitted inhibition curve with a large enough effect; inconclusive = small, poorly fitted or top-dose-only effect, or another doubt; inactive = no such curve, though single readings can be large or run the other way; also: series mostly up to about 120 µM
Target sequence (P11473 whole entry, looked up): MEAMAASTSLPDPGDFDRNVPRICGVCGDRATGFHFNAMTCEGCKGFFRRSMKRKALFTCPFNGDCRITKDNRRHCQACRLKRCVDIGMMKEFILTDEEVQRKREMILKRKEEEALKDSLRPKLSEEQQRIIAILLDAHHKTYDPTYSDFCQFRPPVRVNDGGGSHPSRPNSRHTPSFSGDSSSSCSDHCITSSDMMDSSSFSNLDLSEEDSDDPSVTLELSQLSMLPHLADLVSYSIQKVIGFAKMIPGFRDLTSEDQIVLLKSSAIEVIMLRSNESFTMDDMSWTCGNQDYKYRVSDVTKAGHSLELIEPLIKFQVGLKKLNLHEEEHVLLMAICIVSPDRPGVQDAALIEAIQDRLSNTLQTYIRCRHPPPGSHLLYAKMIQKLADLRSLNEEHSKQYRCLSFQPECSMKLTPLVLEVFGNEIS
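Measured by FP: displacement of SRC2-3 coactivator peptide from VDR by library compounds, following a two-hour ambient incubation.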
Starred values were filed as active, the others as inactive; ? = inconclusive. % is scaled to controls: 0 for no effect and ±100 for the full control effect; potency is read from the fitted curve at half-maximal effect. An excerpt, so the mix of outcomes need not match the whole.

SMILES	VDR inh
CC(C)NS(=O)(=O)c1ccc(OCC(=O)NCc2ccccc2)cc1	12%
Cc1nc2ccccn2c1C(=O)N/N=C/c1ccc([N+](=O)[O-])o1	-26%
CCCn1cnc2sc(C(N)=O)c(C)c2c1=O	11%
Cc1ccc(NC(=O)NCCc2c(C)nn(C)c2C)c(Cl)c1	9%
COCC(=O)N1CCC2(CCCN(Cc3cc(C(F)(F)F)cc(C(F)(F)F)c3)C2)CC1	?
O=C(Nc1ccccn1)C1CCN(S(=O)(=O)c2ccc3ccccc3c2)CC1	7%
O=C(c1cc(COc2ccc(F)cc2F)on1)N1CC2C[C@@H]3CC1C[C@H](C2)C3	-10%
CN1C[C@@H]2C(c3ccc(C(F)(F)F)cc3)C3(c4ccc(C#N)cc4)CC2(C3)[C@H]1c1ccccc1 (stereo not given in full)	18%
Cc1cccc2nc(CSc3nc4[nH]ncc4c(=O)n3-c3cccc(Cl)c3)cc(=O)n12	3%
COC(=O)c1ccc(/C=C/C(=O)c2ccc(OC)c(OC)c2)cc1	?
COc1ccc(CCNC(=O)c2nonc2N)cc1OC	5%
Cc1ccc(NC(=O)C2CCN(C(=O)N3CCOc4ccccc43)CC2)cc1	-18%
CCOC(=O)C1CCN(S(=O)(=O)c2c(C(=O)N3CCCCC3)c(C)n(C)c2C)CC1	-16%
Cc1cccc(-c2cccc(NC(=O)C3CCCN(Cc4cccnc4)C3)c2)c1 (stereo not given)	11%
CCN(CC(=O)Nc1ccc(NC(C)=O)cc1)C(=O)c1c(C)nn(-c2ccc(F)cc2)c1Cl	-15%
CN(C)S(=O)(=O)Oc1ccsc1C(=O)Nc1ccc(Cl)c(Cl)c1	-7%
Cc1ccc(NC(=O)c2ncn(CC(=O)NCc3ccccc3)n2)cc1C	-4%
O=C(Oc1ccc2c(c1)OCO2)c1ccc(F)cc1Cl	-5%
COc1ccc(C(=O)C2CCN(CC(=O)Nc3ccccc3F)CC2)cc1	-1%
CCn1cnc2scc(-c3ccc(C)c(C)c3)c2c1=O	-2%
Cc1ccc(CNC(=O)CSc2cc(C)[nH]c(=O)n2)cc1	2%
CC(C)C(C)(C#N)NC(=O)CSc1nc2scc(-c3ccco3)c2c(=O)n1-c1ccccc1 (stereo not given)	-6%
CCOc1ccccc1N(CC(=O)Nc1ccc(OC)cc1)S(=O)(=O)c1ccccc1	1%
COc1ccc(C(C)=O)cc1CSc1nnc(Nc2c(C)cccc2C)s1	-15%
CCc1nnc(NC(=O)C2CCC(CNc3c(N4CCC(C)CC4)c(=O)c3=O)CC2)s1 (stereo not given)	6%
Remaining list, next part:
SMILES	VDR inh
COCC(C)n1c(C)cc(C(=O)COC(=O)CNC(=O)c2ccccc2)c1C (stereo not given)	-16%
CCCCOc1ccccc1NC(=O)c1ccco1	12%
CCN(CC(=O)Nc1cccc(OC)c1)CC(=O)Nc1cccc2ccccc12	0%
CCN(CC)S(=O)(=O)c1cccc(C(=O)N/N=C/c2ccc([N+](=O)[O-])o2)c1	2%
Cc1cc(-c2nnc(-c3cccc(Cl)c3)o2)no1	3%
C=CCNC(=O)CSc1nnc(-c2ccccn2)n1Cc1ccccc1	17%
CCOc1ccc(NC(=O)c2c(NC(=O)Cc3ccccc3)sc3c2CCCCC3)cc1	18µM*
CCN(CC)C(=O)N1CCn2c(nc3ccccc32)C1	-4%
COc1ccc(NC(=O)c2cncn2-c2ccccc2)cc1	8%
CCc1cccc2c(C(=O)CSc3nnc(-c4ccoc4C)n3C)c[nH]c12	20%
COc1cccc(CNC(=O)c2cc(S(=O)(=O)N3CCCCC3)cn2C)c1	9%
COc1cccc(C2CC(c3cccs3)=NN2S(C)(=O)=O)c1 (stereo not given)	12%
O=C(NC(=S)NCCO)c1sc2ccccc2c1Cl	6%
COc1ccccc1OC(C)C(=O)N1CCN(Cc2ccc3c(c2)OCO3)CC1 (stereo not given)	-10%
CCC(Sc1ncccc1C(=O)OC(C)C)C(=O)N1CCOCC1 (stereo not given)	4%
CN(C)c1ccnc2sc3c(SCc4ccc(Cl)cc4)ncnc3c12	14%
CNC(=S)NC1CC2CCCC(C1)N2Cc1ccccc1OC (stereo not given)	-7%
COc1ccc2c(c1)C1OCCC1C(c1ccco1)N2 (stereo not given)	8%
O=C(CSc1nccn1-c1ccccc1)NO	-7%
COc1cccc(NC(=O)c2nn(-c3ccc(C)cc3)c(=O)n(C)c2=O)c1	11%
CC(C)[C@H](NC(=O)OCc1ccccc1)C(=O)OCC(=O)NCCc1ccccc1	-7%
CCOC(=O)c1cc2c(=O)n3ccccc3nc2n(CC2CCCO2)c1=NC(=O)c1ccc(F)cc1 (stereo not given)	7%
CC(C)c1ccc(CN2C(=O)NC3(CCCCCC3)C2=O)cc1	-17%
Cc1ccc(CNC(=O)Cn2c(=O)n(Cc3ccccc3)c(=O)c3c2c2cc(C)ccc2n3C)cc1	-1%
Cc1cccc(NC(=O)CCN2C(=O)C3C4C=CC(C4)C3C2=O)c1 (stereo not given)	-6%
Other structures:
SMILES	VDR inh
CC(C)Oc1ccc(CNC(=O)c2cccc(NC(=O)N3CCSc4ncccc43)c2)cc1	-12%
Cc1ccc(CNC(=O)CSc2nc(C)cs2)cc1	-6%
CC(C)N1CCN(c2ccc(S(=O)(=O)N3CCOCC3)cn2)CC1	-11%
COc1ccc(C(=O)NNC(=O)c2snnc2C)cc1	-4%
COc1ccc(N2CCN(C(=O)COC(=O)c3oc4ccccc4c3C)CC2)cc1	-6%
Cc1onc(-c2ccc(Cl)cc2Cl)c1-c1csc(N/N=C/c2ccccc2Cl)n1	3%
O=C(Nc1nnc(-c2cccs2)o1)C1CC1	-12%
O=C(Nc1nnc(SCc2ccc(F)cc2)s1)C1CC(=O)N(c2ccc3c(c2)OCCO3)C1 (stereo not given)	-15%
Cc1ccc(N2C(=O)CC(Sc3ncn[nH]3)C2=O)cc1C (stereo not given)	-1%
COc1ccc(COC(=O)C2=C(C)NC(=O)NC2c2ccccc2F)cc1 (stereo not given)	13%
CCCC[C@H](NC(=O)[C@H](CC(C)C)NC(=O)[C@@H](Cc1c[nH]c2ccccc12)NC(=O)[C@H](Cc1ccccc1)NC(=O)[C@@H](Cc1c[nH]c2ccccc12)NC(=O)[C@H](CC(N)=O)NC(=O)[C@@H](Cc1c(Cl)cccc1Cl)NC(=O)[C@@H]1CCCN1C(=O)[C@H](Cc1ccccn1)NC(=O)[C@@H]1CCCN1C(=O)[C@H](N)CCCCNC(=O)c1cccnc1)C(N)=O	6%
CCOC(=O)C1CCN(c2cc(=O)n(Cc3ccc(F)cc3)c(=O)[nH]2)CC1	-3%
COc1ccc(NC(=O)COC(=O)CO/N=C(\C)c2ccc3c(c2)OCO3)cc1S(N)(=O)=O	-19%
Cc1cccc(NC(c2nnc(-c3ccccc3)o2)c2ccc(F)cc2Cl)c1C (stereo not given)	-4%
O=C(O)COc1ccc(CCNS(=O)(=O)c2ccccc2)s1	?
O=C(CCl)Nc1cccc(Oc2ccccc2)c1	-13%
Cc1cccc(-c2nc(=S)c3c(o2)CCCC3)c1	-42%
COc1ccc(NC(=S)N2CCC(NC(=O)c3ccc(OC)cc3)CC2)cc1	-2%
CC(C)CNc1cc(N2CCCC2)ccc1[N+](=O)[O-]	-3%
c1ccc2c(c1)N1CCCN=C1N2CCN1CCCCC1	-12%
NC(=O)c1ccc(NC(=O)CSC2=Nc3ccccc3C3CC=NN23)cc1 (stereo not given)	?
CCOc1ccc2nc(NC(=O)CSc3nc(-c4ccccc4)c(C#N)c(=O)[nH]3)sc2c1	-5%
O=C(CN1C(=O)COc2ccc(S(=O)(=O)N3CCCC3)cc21)N1CCN(c2ccc(Cl)cc2)CC1	0%
CCCN(Cc1nnc(-c2ccccc2Cl)o1)C(=O)c1cc(S(=O)(=O)N2CCOCC2)ccc1F	-2%
COC(=O)c1c(-c2ccc(SC)cc2)sc2ccccc12	9%
(listing goes on)
SMILES	VDR inh
CNC(=O)c1cc2cc(Cc3ccccc3Cl)ccc2oc1=O	5%
Cc1c(Cl)cccc1NC(=O)Cc1ccc([N+](=O)[O-])cc1	12%
Cc1cc(C)c(S(=O)(=O)n2cnc3ccccc32)c(C)c1	9%
COc1cc(C2C(=O)N(C3CCCCCC3)CC(=O)N2CCc2ccccc2)ccc1OC(C)C (stereo not given)	19%
Cc1nn(-c2ccc(N3CCCC3)nn2)c(C)c1CCC(=O)NCc1ccccc1F	6%
O=C(CCS(=O)(=O)c1cccc2nsnc12)NC1CCCCCC1	-5%
Cc1scc(C(=O)N/N=C/c2ccc(OC(C)C)cc2)c1C	-6%
COc1ccc2[nH]c(C)cc(=O)c2c1	-4%
O=C(O)c1cc(-c2ccc(N3CCOCC3)cc2)nn1-c1ccc(F)cc1F	-16%
CCC(=O)Nc1cccc(-c2cn3ccccc3n2)c1	-3%
CCOn1c(=O)c(-c2ccc(OC)c(OC)c2)[n+]([O-])c2ccccc21	12%
COc1cccc2c(=O)cc(C)n(CC(=O)Nc3ccc(C)c(C)c3)c12	4%
O=C1CC2(CC(c3ccc(Cl)cc3)=NO2)C(=O)N1c1ccccc1 (stereo not given)	3%
Cc1ccc(S(=O)(=O)N2CCN(C(=O)COC(=O)COc3ccc(Cl)c(C)c3)CC2)c(C)c1	-9%
O=C(COC(=O)c1ccccc1Nc1ccc(SC(F)F)cc1)NC1CC1	21%
NC1=NC(=O)/C(=C/c2ccccc2OS(=O)(=O)c2ccccc2)S1	-16%
CC(C)NC(=O)N1c2ccccc2Sc2ccccc21	-29%
CC(C)C(=O)Nc1ccc(N2CCN(c3ccc(F)cc3)CC2)cc1	-6%
CC(NC(=O)C1CCN(C(=O)Nc2ccccc2)CC1)c1ccccc1Cl (stereo not given)	3%
COc1ccc(CCNC(=O)CSc2nc(O)c(CC(C)C)c(=O)[nH]2)cc1OC	-3%
CCOC(=O)c1c(NC(=O)C2CCCN(S(=O)(=O)c3ccccc3)C2)sc2c1CCCC2 (stereo not given)	-5%
Cc1cc(N2CCC(C)CC2)nc2cccc(O)c12	-4%
COc1ccc(S(=O)(=O)N(CC(=O)NCc2ccccc2)c2ccc(C)cc2)cc1OC	-9%
COc1ccc(CCNS(=O)(=O)c2cccc(C)c2)cc1OC	7%
COc1ccc(/C=C/c2nc(-c3ccccc3)cc(=O)[nH]2)cc1	-4%

Arranged by number of heavy atoms (rising): some entries from above.
SMILES	VDR inh
COc1ccc2[nH]c(C)cc(=O)c2c1	-4%
Cc1cc(N2CCC(C)CC2)nc2cccc(O)c12	-4%
CC(C)NC(=O)N1c2ccccc2Sc2ccccc21	-29%
Cc1cc(C)c(S(=O)(=O)n2cnc3ccccc32)c(C)c1	9%
Cc1scc(C(=O)N/N=C/c2ccc(OC(C)C)cc2)c1C	-6%
COc1ccc(/C=C/c2nc(-c3ccccc3)cc(=O)[nH]2)cc1	-4%
O=C1CC2(CC(c3ccc(Cl)cc3)=NO2)C(=O)N1c1ccccc1 (stereo not given)	3%
CC(C)C(=O)Nc1ccc(N2CCN(c3ccc(F)cc3)CC2)cc1	-6%
COc1cccc2c(=O)cc(C)n(CC(=O)Nc3ccc(C)c(C)c3)c12	4%
O=C(COC(=O)c1ccccc1Nc1ccc(SC(F)F)cc1)NC1CC1	21%
O=C(O)c1cc(-c2ccc(N3CCOCC3)cc2)nn1-c1ccc(F)cc1F	-16%
COc1ccc(CCNC(=O)CSc2nc(O)c(CC(C)C)c(=O)[nH]2)cc1OC	-3%
Cc1nn(-c2ccc(N3CCCC3)nn2)c(C)c1CCC(=O)NCc1ccccc1F	6%
CCOC(=O)c1c(NC(=O)C2CCCN(S(=O)(=O)c3ccccc3)C2)sc2c1CCCC2 (stereo not given)	-5%
Cc1ccc(S(=O)(=O)N2CCN(C(=O)COC(=O)COc3ccc(Cl)c(C)c3)CC2)c(C)c1	-9%
COc1cc(C2C(=O)N(C3CCCCCC3)CC(=O)N2CCc2ccccc2)ccc1OC(C)C (stereo not given)	19%

Next section.
SMILES	VDR inh
Cc1csc(SCC(=O)NC(=O)NC(C)C)n1	-11%
S=C(NCc1ccc(Cl)cc1)NCc1ccccn1	8%
CCOc1ccccc1NC(=O)CSC1=C(C#N)C(c2ccco2)C(C(=O)Nc2nc3ccccc3s2)=C(C)N1 (stereo not given)	?
Cc1ccc(C(=O)CC(C(=O)O)n2cncn2)cc1 (stereo not given)	-13%
COc1cc(SC)ccc1C(=O)NCCOc1ccc(F)cc1	-15%
COc1ccc(NC(=O)CSC2=NCCN2)cc1	5%
COc1ccc(C(CC(=O)Nc2nccs2)C(C)C)cc1 (stereo not given)	-19%
CNCCCCOc1ccc(C(C)(C)C)cc1Cl	1%
COc1ccc(-n2nnc3c(SCC(=O)OCc4ccccc4)ncnc32)cc1	10%
C/C=C/C(=O)NCCc1ccc(OC)c(OC)c1	-5%
COc1ccc(CNC(=O)Cc2coc3ccc(C(C)C)cc23)cc1	1%
C=CCN(CC=C)C(=O)c1ccccc1NC(=O)c1ccccc1C	0%
COCCn1c(SCc2cccc([N+](=O)[O-])c2)nc2ccccc2c1=O	8%
CCn1cc2c(c1-c1cccc(C)c1)c(=O)n(C)c(=O)n2C	4%
CC(C(=O)N1c2ccccc2CC1C)N1CCN(S(=O)(=O)c2ccccc2F)CC1 (stereo not given)	-6%
COc1cccc(NC(=O)CSC2=Nc3ccccc3C3=NC(CC(=O)NCc4ccc5c(c4)OCO5)C(=O)N23)c1 (stereo not given)	4%
CCOc1cc([N+](=O)[O-])cc(/C=N/NC(=O)c2c(-c3ccccc3)noc2C)c1O	0%
COc1cccc(CC(=O)OC(C)C(=O)Nc2ccc(Cl)cn2)c1 (stereo not given)	-1%

Screening data from PubChem.
